# Cruzain inh noDet – qHTS Assay for Promiscuous and Specific Inhibitors of Cruzain (without detergent); Cruzipain (Trypanosoma cruzi), P25779; purified cruzain, Z-FR-AMC fluorescence, no detergent; Potency, µM, without a hit: max response, negative = inhibition, most hits filed as inhibitors; 200,000 compounds, 2.3% hits; AID 1476, 2009;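 note: plate controls were enzyme without inhibitor for no effect and buffer without enzyme for full effect; nearly all actives have a fitted effect of over 40% in size; top concentration of the series not given in the record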
# Target sequence (P25779 123-467 limits assumed): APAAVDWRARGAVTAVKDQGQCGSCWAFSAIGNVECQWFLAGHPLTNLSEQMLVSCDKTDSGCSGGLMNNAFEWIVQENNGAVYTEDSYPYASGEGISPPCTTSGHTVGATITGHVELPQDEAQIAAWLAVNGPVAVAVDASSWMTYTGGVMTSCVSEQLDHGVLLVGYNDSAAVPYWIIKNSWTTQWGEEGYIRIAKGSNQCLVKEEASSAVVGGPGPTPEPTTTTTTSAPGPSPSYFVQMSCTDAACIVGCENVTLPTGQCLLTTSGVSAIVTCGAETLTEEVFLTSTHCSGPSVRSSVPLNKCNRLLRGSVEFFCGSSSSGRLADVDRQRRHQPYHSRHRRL
#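 Purified cruzain at 1.5 nM, pre-incubated 15 min with compound at room temperature in 100 mM sodium acetate pH 5.5, 5 mM DTT, 0.00005% Triton X-100. Reaction started with 2 uM Z-FR-AMC; AMC fluorescence increase over 60 s gives rate.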
# RE007 growth inh – qHTS Assay for Inhibitors of the HIV-1 protein Vpr | S. pombe RE007 Vpr strain, BacTiter-Glo ATP luminescence, 24 h; control for the full effect not named in the record | Potency, µM (series often up to 92.2 µM), without a hit: top-dose activity change, negative = less growth | 360,000 compounds, 0.21% hits; active = well fitted falling curve with a large enough effect; inconclusive = small, poorly fitted or top-dose-only effect; inactive = no such curve, though single readings can be large or run the other way;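 note: % is set by controls: 0 for no effect and ±100 for the full control effect; nearly all actives have a fitted effect of over 50% in size; the assay follows cell death caused by Vpr and the record does not say whether a fall means rescue or toxicity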
#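 Fission yeast strain RE007, carrying one chromosomally integrated HIV-1 vpr copy, was seeded at OD 0.01 in PMG+AL medium with 23 nL pinned compound. After 24 h at 30 °C and 99% humidity, viability was read by BacTiter-Glo luminescence.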
# MARV entry inh – qHTS for inhibitors of binding or entry into cells for Marburg Virus. Marburg virus pseudotyped entry inhibition, cell reporter; control for the full effect not named in the record; about a third of the inactives were read at about 46 µM. 300,000 compounds, 1.8% hits. Potency, µM (series often up to 37.8 µM), inactives show at the highest dose activity change, negative = inhibition, hits mostly inhibitors; active = well fitted inhibition curve with a large enough effect; inconclusive = small, poorly fitted or top-dose-only effect, or effect the other way; inactive = flat fitted curve, though single readings scatter; tested in HEK293 cells; about a fifth of its hits are not listed in these tables; note: % is set by controls: 0 for no effect and ±100 for the full control effect; luciferase read-out
# LASV entry inh – qHTS for Inhibitors of binding or entry into cells for Lassa Virus; Potency, µM (series often up to 37.9 µM), without a hit: at the highest dose activity change, negative = inhibition, actives largely listed as inhibitors; 300,000 compounds, 1.2% hits; Lassa virus pseudotype entry inhibition, cell reporter; control for the full effect not named in the record; active means well fitted inhibition curve with a large enough effect; inconclusive means small, poorly fitted or top-dose-only effect, or effect the other way; inactive means flat fitted curve, though single readings scatter; tested in HEK293 cells; note: % is set by controls: 0 for no effect and ±100 for the full control effect; nearly all actives have a fitted effect of over 50% in size; luciferase read-out
# NS1 inh – qHTS Assay for Inhibitors of Influenza NS1 Protein Function. Potency, µM (top dose mostly 46.1 µM), for the others: top-dose activity, positive = more growth. 270,000 compounds, 0.4% hits. S. cerevisiae slowed by influenza A NS1, growth recovery by OD600. AID 2326, 2010; active means well fitted rising curve with a large enough effect; inconclusive means small, poorly fitted or top-dose-only effect; inactive means no such curve, though single readings can be large or run the other way; note: nearly all actives have a fitted effect of over 50% in size
#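 Growth recovery, yeast-based: influenza A NS1 expressed in S. cerevisiae causes slow growth, and suppressors are detected by OD600. The parent strain without NS1 is used as positive control.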
# Cruzain Triton – qHTS Assay for Promiscuous and Specific Inhibitors of Cruzain (with detergent); Cruzipain (Trypanosoma cruzi), P25779; purified cruzain, Z-FR-AMC fluorescence, 0.01% Triton; Potency, µM, for inactives: max response, negative = inhibition, actives largely listed as inhibitors; 200,000 compounds, 0.43% hits;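 note: plate controls were neutral wells for no effect and buffer without enzyme for full effect; nearly all actives have a fitted effect of over 40% in size; top concentration of the series not given in the record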
#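 Detergent-containing run (0.01% Triton X-100) in acetate buffer pH 5.5 with 5 mM DTT: enzyme at 1.5 nM final, 15 min compound preincubation at room temperature, then 2 uM Z-FR-AMC substrate. Activity taken as 60 s fluorescence increase at 360/450 nm.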
# 2A StopGo – High Throughput Screening for Foot and Mouth Disease Virus Antivirals. 410,000 compounds, 1.2% hits. Potency, µM (titrated, usually from 57.9 µM), inactives show at the highest dose signal change, negative = less light. human cells with a luciferase reporter of 2A StopGo recoding; control for the full effect not named in the record; active = well fitted falling curve with a large enough effect; inconclusive = small, poorly fitted or top-dose-only effect; inactive = no such curve, though single readings can be large or run the other way; tested in HEK293T cells; note: % is set by controls: 0 for no effect and ±100 for the full control effect; nearly all actives have a fitted effect of over 45% in size; luciferase light after 4 h
# SARS PLpro yeast – qHTS of Yeast-based Assay for SARS-CoV PLP | S. cerevisiae expressing SARS-CoV PLpro, growth rescue; control for the full effect not named in the record | Potency, µM (series often up to 32.9 µM), inactives show at the top dose activity, positive = growth rescue | 330,000 compounds, 0.19% hits | AID 485353, 2010; active means well fitted rising curve with a large enough effect; inconclusive means small, poorly fitted or top-dose-only effect; inactive means no such curve, though single readings can be large or run the other way; note: 0% is about no effect; nearly all actives have a fitted effect of over 55% in size; growth read by luminescence after 48 h
# * marks the source's active call; other numbers are inactive results; ? = inconclusive; . = not tested or not shown; [ ] = remark or other dose. Unless noted, calls come from the whole dose curve; as a rule, active = well fitted curve in the direction sought with a large enough effect; inconclusive = small, poorly fitted or top-dose-only effect, or another doubt; inactive = no such curve, though single readings can be large; an effect the other way counts as inactive or inconclusive. Potency is the fitted concentration of half-maximal effect.
# Every second line gives: MARV entry inh	LASV entry inh	RE007 growth inh	2A StopGo	SARS PLpro yeast	NS1 inh	Cruzain Triton	Cruzain inh noDet
- CC1CCN(C(=O)c2cccc(S(=O)(=O)N3CCCCC3)c2)CC1
 : 20%	-2%	-3%	-2%	-2%	-5%	-0.8%	1%
- COc1ccc(/C=C/C(=O)c2ccc(Cl)s2)cc1O
 : 14%	2%	-18%	-6%	-29%	-211%	-14%	4%
- Cc1nn(C)c(C)c1N1C(=O)c2cccc3c(Br)ccc(c23)C1=O
 : -27%	-18%	0%	?	-16%	-8%	-16%	?
- CCOc1ccc(NC(=O)CNC(=O)c2cn(-c3ccccc3OC)c(=O)c3ccccc23)cc1
 : -15%	3%	-25%	-3%	-4%	0%	-0.3%	?
- O=c1c2ccccc2c(C=Nc2ccc(O)cc2)c(O)n1Cc1ccccc1
 : -11%[46.1 µM]	-9%	6%	15%	-1%	0%	.	.
- CC1CCN(C(=O)CN2c3ccc(C(C)C)cc3-c3ccccc3S2(=O)=O)CC1
 : ?	?	.	54%[activator]	.	.	-5.4%	-5%
- CC1(C)CC(O)C(CCC(O)c2ccccc2)C(C)(C)N1 (stereo not given)
 : 0%	3%	17%	-23%	-2%	2%	2.6%	-4%
- O=C(c1ccc(Cl)cc1)C1CCCN(Cc2cccn2-c2cccnc2)C1 (stereo not given)
 : -39%[46.1 µM]	0%	4%	?	0%	5%	.	.
- COc1ccc(S(N)(=O)=O)cc1C(=O)OCC(=O)Nc1ncc(Cl)c(C)c1Cl
 : 1%[46.1 µM]	17%[46.1 µM]	7%	24%	-5%	.	.	.
- CCOC(CNC(=O)c1ccc2c(c1)ncn2-c1ccccc1OC)OCC
 : -4%[46.1 µM]	-9%[46.1 µM]	-12%	8%	1%	0%	.	.
- COc1cc(C(=O)Nc2ccc3c(c2)OCO3)c([N+](=O)[O-])cc1OC
 : 10%	1%	0%	-22%	3%	6%	.	.
- CCc1nn2c(=O)cc(COC(=O)c3ccc(NC(=O)COc4ccc(C)cc4)cc3)nc2s1
 : .	?	.	8%	.	.	-1.9%	-2%
- CCCOc1ccc(C(NC(=O)CC(C)C)NC(=O)CC(C)C)cc1OC
 : 11%	0%	-2%	-14%	10%	16%	-0.5%	3%
- Cc1ccc(SC(C)C(=O)NC2CC2)cc1 (stereo not given)
 : .	.	6%	2%	-7%	8%	.	.
- CCCSC1=C(C#N)C(c2cccs2)CC(=O)N1 (stereo not given)
 : 0%[46.1 µM]	?	-18%	-11%	-1%	9%	.	.
- COc1ccc(NCc2cccn2-c2nnc(N3CCCCC3)s2)cc1OC
 : .	?	.	-13%	.	.	-1.2%	-4%
- CSCC[C@H](NC(=O)c1ccc(OCC2CCCO2)cc1)c1nc2ccccc2[nH]1 (stereo not given in full)
 : -5%	0%	4%	27%	-3%	.	.	.
- CN(Cc1ccccc1)C(=O)c1[nH]cnc1C(=O)N[C@@H](Cc1ccccc1)C(=O)OC(C)(C)C
 : .	.	0%	-14%	0%	8%	.	.
- CC(C)C(c1nnnn1CCc1ccccc1)N1CCN(C(=O)c2ccco2)CC1 (stereo not given)
 : -2%	-4%	-21%	-6%	0%	-4%	-4.0%	-11%
- Cc1ccc(-c2csc(N=C(N)N)n2)c(C)c1
 : ?	3%	-5%	-8%	0%	-4%	.	.

# (listing goes on)
# Every second line gives: MARV entry inh	LASV entry inh	RE007 growth inh	2A StopGo	SARS PLpro yeast	NS1 inh	Cruzain Triton	Cruzain inh noDet
- O=C(COC(=O)Cc1ccsc1)Nc1ccc(Br)cc1F
 : ?	20%	?	-10%	0%	.	.	.
- CN(C)S(=O)(=O)c1cccc(NC(=O)COC(=O)CCOc2ccccc2)c1
 : -2%[46.1 µM]	-6%	-17%	-12%	1%	.	.	.
- CCCNC(=O)CSc1nc2ccccc2c(=O)n1CCC
 : ?	15%[46.1 µM]	0%	-11%	-2%	.	.	.
- O=C(C1CC1)N1CCc2cc(Br)cc(S(=O)(=O)NCCN3CCOCC3)c21
 : ?	5%	-6%	75%[activator]	-2%	3%	0.5%	?
- Clc1ccc(-c2nc(C3CCCCC3)no2)cc1
 : 18%[46.1 µM]	14%	-10%	47%[activator]	2%	.	.	.
- CCOc1ccccc1NC(=O)CCS(=O)(=O)c1ccc2c(c1)CCN2C(C)=O
 : .	.	6%	-1%	8%	-13%	.	.
- O=C(Nc1ccc(NC(=O)C2CC2)cc1)c1ccco1
 : 8%[46.1 µM]	?	0%	29%	-3%	-2%	.	.
- CC(=O)/C=C1/SC(CC(=O)O)C(=O)N1c1ccccc1 (stereo not given)
 : ?	?	16%	-20%	10%	-2%	-4.4%	11%
- CCCCN(C(=O)Cc1cccc(F)c1)c1c(N)n(CCC)c(=O)[nH]c1=O
 : ?	13%[46.1 µM]	1%	-4%	1%	.	.	.
- O=C(N/N=C/C=C/c1ccccc1[N+](=O)[O-])c1cccs1
 : ?	9%	.	21%	6%	-2%	-11%	-13%
- Cc1ccc(CNC(=O)C(=O)c2cn(CC(=O)N3CCCC3)c3ccccc23)cc1
 : -19%	-13%	6%	25%	-3%	1%	.	.
- CCC(C)N1CCN(C(=O)c2cccs2)CC1 (stereo not given)
 : -1%	10%	5%	-22%	.	.	.	.
- CCN(CC)CC#CCC(O)(c1ccccc1)c1ccc(Br)cc1 (stereo not given)
 : 23µM*	?	4%	-21%	0%	1%	.	.
- CCCN(CCC)CCNc1c(NC2CCN(C(=O)OCC)CC2)c(=O)c1=O
 : -3%	.	-4%	-24%	-8%	-2%	6.0%	-1%
- COc1ccc(/C=C(/C(=O)Nc2ccccc2C(=O)N2CCCC2)c2ccccc2)cc1
 : -7%	-17%	-10%	-26%	-18%	-66%	-8.4%	?
- CC1C=CCC2C(=O)N(c3ccccc3OC(=O)c3cccs3)C(=O)C12 (stereo not given)
 : .	.	-5%	-10%	0%	-2%	.	.
- O=C1C2C(C(=O)N1c1nccs1)C1C=CC2C12CC2 (stereo not given)
 : .	.	-4%	-14%	0%	7%	.	.
- Cc1nnsc1C(=O)NC(C)C12CC3CC(CC(C3)C1)C2 (stereo not given)
 : -16%	-12%	-19%	.	-2%	-35%	-1.8%	-3%
- CN1CCN(C(=O)c2ccc3c(=O)n(-c4ccc(F)cc4)c(=S)[nH]c3c2)CC1
 : ?	12%	10%	3%	1%	.	.	.
- O=C(CN1CC[n+]2c(-c3ccccc3)csc21)c1ccc(Br)cc1
 : .	.	0%	-20%	2%	?	.	.

# New compounds follow.
# Every second line gives: MARV entry inh	LASV entry inh	RE007 growth inh	2A StopGo	SARS PLpro yeast	NS1 inh	Cruzain Triton	Cruzain inh noDet
- O=c1oc(Nc2cccc(Cl)c2)nc2ccccc12
 : ?	?	-4%	29%	2%	2%	.	.
- CCCc1c(C)nc(N2CCN(c3ccccc3F)CC2)[nH]c1=O
 : .	.	1%	-14%	4%	-8%	.	.
- COc1ccc(NC(=O)CCS(=O)(=O)c2nc(-c3ccc4c(c3)OCO4)cc(C(F)(F)F)n2)cc1OC
 : -18%[46.1 µM]	-1%[46.1 µM]	.	-6%	.	.	-3.8%	16%
- COc1ccc(-n2cc(CN(C)C(C)c3ccncn3)c(-c3cccc(F)c3)n2)cc1 (stereo not given)
 : ?	?	-2%	-13%	-1%	-4%	.	.
- CCOC(=O)N1CCN(C(=O)/C(=C/c2cccc3ccccc23)NC(=O)c2ccc(OC)c(OC)c2)CC1
 : -4%	?	13%	-12%	-5%	-9%	-11%	?
- CCOc1ccc(C(C)NC(=S)NCc2ccc(F)cc2)cc1 (stereo not given)
 : ?	?	12%	10%	?	-91%	.	.
- O=C(Nc1ccccc1)c1ccccc1NC(=O)C1CCCCC1
 : 7%	32%	5%	-1%	-6%	9%	-1.1%	-12%
- Cc1cccc(C(=O)N(Cc2cccs2)C2CCS(=O)(=O)C2)c1 (stereo not given)
 : .	.	-7%	-8%	3%	4%	.	.
- O=C(CCCCn1c(=O)c2ccccc2n(Cc2cccc(F)c2)c1=O)NCc1ccc2c(c1)OCO2
 : ?	19%[46.1 µM]	.	-1%	.	.	-2.1%	4%
- O=C(c1cnc(N2CCOCC2)c2ccccc12)N1CCN(c2ccc(F)cc2)CC1
 : .	-7%[46.1 µM]	.	-8%	.	.	-4.6%	?
- c1cncc(-c2nnc3n2CCC3)c1
 : 10%	2%	30%	-12%	3%	2%	1.5%	-1%
- Cc1[nH]c2ccccc2c1C(O)CN1CCC2(CC1)OCCO2 (stereo not given)
 : .	.	1%	-20%	-1%	0%	.	.
- CC(=O)Nc1ccc(NC(=O)CN2C(=O)CCc3cc(S(=O)(=O)N4CCCCC4)ccc32)cc1
 : .	2%[46.1 µM]	.	-16%	.	.	-0.5%	7%
- Cc1nnc(N/N=C/c2ccccc2F)n1N
 : .	.	4%	7%	-5%	-32%	.	.
- Cc1cccc(CSc2ncc(Cl)c(C(=O)Nc3nc4ccc(F)cc4s3)n2)c1
 : -11%[46.1 µM]	5%[46.1 µM]	.	-9%	.	.	0.0%	0%
- CCCN1C(=O)C(Cc2nc3ccccc3c(=O)n2CC)c2cc(Br)ccc21 (stereo not given)
 : -25%[46.1 µM]	-27%[46.1 µM]	.	-1%	.	.	-3.9%	?
- O=C1C(=Cc2cccs2)C(=O)c2ccccc21
 : -5%	5%	.	8%	-37%	-23%	-4.4%	-2%
- Cc1ccc(NC(=O)c2ccncc2)cc1[N+](=O)[O-]
 : 23%	23%	.	6%	-2%	12%	-0.4%	-4%
- Cc1cc(C)nc(/N=C(/NC(=O)Nc2ccc(Cl)c(Cl)c2)Nc2cccc(Cl)c2)n1
 : -7%	26%	-3%	-27%	10%	-2%	0.0%	7.9µM*
- COc1ccc(CC(=O)NC2CCSc3ccccc32)cc1OC (stereo not given)
 : .	.	-16%	2%	-4%	1%	.	.

# Compound activity deposited in PubChem BioAssay by National Center for Advancing Translational Sciences (NCATS).
